ClpP mod: qHTS Assay for Activators of ClpP. 340,000 compounds, 1.9% hits. purified B. subtilis ClpP, FRET peptide cleavage, 20 min. Potency, µM (top dose mostly 57.5 µM), for inactives: at the highest dose activity change, negative = active; active = well fitted falling curve with a large enough effect; inconclusive = small, poorly fitted or top-dose-only effect; inactive = no such curve, though single readings can be large or run the other way; note: potency is the fitted concentration of half-maximal effect; the source files actives as falling curves though it sought activators and does not explain the sign; nearly all actives have a fitted effect of over 65% in size; many hits overshoot -100%
Target sequence (P80244 whole entry, looked up): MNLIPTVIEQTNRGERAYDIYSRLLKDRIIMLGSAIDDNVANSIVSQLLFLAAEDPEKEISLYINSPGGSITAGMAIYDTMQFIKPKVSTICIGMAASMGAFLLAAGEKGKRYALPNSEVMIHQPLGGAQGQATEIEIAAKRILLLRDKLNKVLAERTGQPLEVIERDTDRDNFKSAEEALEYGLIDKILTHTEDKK
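Buffer: 100 mM Tris/HCl pH8, 100 mM KCl, 0.05% low protease BSA, 2.5% glycerol, 0.01% Tween-20. ClpP 10 microg/mL final; 20 min RT; delta FRET normalized to ADEP and DMSO controls.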
TRPV1 potentiator: human TRPV1 potentiation | Q8NER1 | TRPV1-expressing cells, Fluo-8 calcium influx, capsaicin EC20 potentiation; host cell line not named in the record; control for the full effect not named in the record | potentiation, % at 8.33 µM | 320,000 compounds, 0.02% hits | AID 540277; active means potentiation above 80%; inconclusive means 30% to 80%; inactive means below 30%; note: 0% is about no effect
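Cells expressing TRPV1 were dye-loaded with Fluo-8 and read kinetically: 10 s baseline, 3 min after compound (agonist portion), then 2 min after EC20 capsaicin (allosteric enhancer portion). Calcium-bound dye fluorescence at 480/520 nm.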
Sfp PPTase inh: Sfp phosphopantetheinyl transferase inhibition; Q9F4F7; Potency, µM, for the others: max response, negative = inhibition, most hits filed as inhibitors; AID 1490; 310,000 compounds, 3.5% hits; Biochemical Sfp PPTase activity, qHTS; active = well fitted inhibition curve with a large enough effect; inconclusive = small, poorly fitted or top-dose-only effect, or another doubt; inactive = no such curve, though single readings can be large or run the other way;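 note: the enzyme is Sfp with the accession as filed and its product quenches rhodamine fluorescence; potency is the fitted concentration of half-maximal effect; 0% = enzyme reaction without inhibitor and -100% = no enzyme wells; top concentration of the series not given in the record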
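After 15 min at room temperature with compound, 15 nM Sfp received 5 uM rhodamine-CoA plus 12.5 uM BHQ-2-ybbR (50 mM Hepes pH 7.6, 10 mM MgCl2). Rate came from the fluorescence difference over 30 min, ex 525/em 598 nm.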
TRPML1 blocker: blocks the human TRPML1 channel; Q9GZU1; TRPML1-inducible cells, Ca2+ dye fluorescence, FDSS; active compounds read low; inhibition of EC80 agonist-evoked calcium signal; activity change, negative = inhibition, % (no concentration beside the values); 390,000 compounds, 0.02% hits; in the data active means activity change below about -50%; inconclusive means about -30% to -50%; inactive means above about -30%;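 note: stimulus is agonist 54-4 at its EC80 concentration; % is set by controls: 0 for no effect and ±100 for the full control effect; compound concentration not given in the record; the text of the record puts the active cut at -80%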
Target sequence (Q9GZU1 whole entry, looked up): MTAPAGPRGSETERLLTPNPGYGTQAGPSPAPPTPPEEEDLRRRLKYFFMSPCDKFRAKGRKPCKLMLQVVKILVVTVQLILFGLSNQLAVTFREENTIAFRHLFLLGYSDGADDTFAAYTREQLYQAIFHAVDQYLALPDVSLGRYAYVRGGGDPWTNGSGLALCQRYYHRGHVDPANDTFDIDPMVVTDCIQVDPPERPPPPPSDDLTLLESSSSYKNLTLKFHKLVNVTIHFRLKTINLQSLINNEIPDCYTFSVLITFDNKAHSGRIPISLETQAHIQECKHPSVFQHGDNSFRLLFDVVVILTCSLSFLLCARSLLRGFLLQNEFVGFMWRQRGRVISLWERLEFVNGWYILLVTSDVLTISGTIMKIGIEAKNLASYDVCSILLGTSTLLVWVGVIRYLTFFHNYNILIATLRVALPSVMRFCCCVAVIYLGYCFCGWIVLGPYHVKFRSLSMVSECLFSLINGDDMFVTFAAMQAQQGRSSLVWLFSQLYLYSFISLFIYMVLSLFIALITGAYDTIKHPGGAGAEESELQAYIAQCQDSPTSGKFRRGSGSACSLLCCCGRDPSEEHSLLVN
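Calcium fluorescence in TRPML1-DL cells induced overnight with Tet: a 110 s read after compound pin addition, then a 110 s antagonist read after challenge with 54-4 at 4 uM final (EC80).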
gsp agonist: gsp mutant agonism; gsp mutant cells, cAMP HTRF, 30 min; control for the full effect not named in the record; Potency, µM (doses to about 76.9 µM), without a hit: at the highest dose activation (cAMP increase), hits mostly activators; 340,000 compounds, 0.13% hits; active = well fitted activation curve with a large enough effect; inconclusive = small, poorly fitted or top-dose-only effect, or another doubt; inactive = no such curve, though single readings can be large or run the other way; cell line not stated here;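 note: phosphodiesterase inhibitor Ro 20-1724 added with compounds to block cAMP breakdown; potency is the fitted concentration of half-maximal effect; nearly all actives have a fitted effect of over 60% in size; about a fifth of the inactives were tested at one dose only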
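Cells stably selected in G418 were plated at 2000/well, grown 16-24 hr, then given compounds in DMSO with the PDE inhibitor […] (300 uM solution added) for 30 min at 37C; cAMP was read by HTRF.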
Menin MLL FP FL: displaces fluorescein MLL peptide from human menin. AID 1766. 290,000 tested, under 10 active. Fluorescence polarization, fluorescein-MLL peptide displacement from menin. FP activity change, % at 61.4 µM; inconclusive = falling polarisation curve, or a change in total fluorescence; inactive = total fluorescence flat and polarisation flat or rising; no compound was filed as active; the % refers to the polarisation; negative = inhibition;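 note: % of control where 0% means no effect; inhibitors lower the polarisation; unlabelled MLL peptide was the positive control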
gsp antag: antagonizes gsp, the McCune-Albright syndrome mutation | gsp-mutant cells, cAMP HTRF, 30 min; control for the full effect not named in the record | Potency, µM (doses to about 76.9 µM), inactives show top-dose activity change, negative = inhibition, actives largely listed as inhibitors | 340,000 compounds, 0.4% hits; active = falling curve of any shape with a large fitted effect; inconclusive = falling curve, mostly with a smaller effect; inactive = flat or rising curve; cell line not stated here;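 note: intracellular cAMP measured with PDE inhibitor Ro 20-1724 present during compound exposure; potency is the fitted concentration of half-maximal effect; % is set by controls: 0 for no effect and ±100 for the full control effect; nearly all actives have a fitted effect of over 65% in size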
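Cells in G418 medium, seeded 16-24 h, 37C; buffer exchange to DPBS + 1 mM CaCl2, 0.5 mM MgCl2, 0.05% BSA; cpds in DMSO + […] (300 uM stock), 30 min 37C; HTRF cAMP detection.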
* marks the source's active call; other numbers are inactive results; ? = inconclusive; . = not tested or not shown; [ ] = dose if it differs, or a comment. No enrichment for hits, and some 4.9% of all compounds hit somewhere here.

The line under a structure holds: TRPML1 blocker	ClpP mod	Menin MLL FP FL	TRPV1 potentiator	gsp antag	gsp agonist	Sfp PPTase inh
1) Cc1ccc(C)c(OCC(=O)Nc2ccccc2C(=O)N2CCOCC2)c1
→ -13	.	.	-13	-4%	-8%[15.4 µM]	7%
2) CCOC(=O)c1sc(N)c(C(=O)OCC)c1COC(=O)C1CC(=O)N(Cc2ccco2)C1 (centres undefined)
→ 0	-7.8%	2.2	-2	-10%	6%	-17%
3) CCCC1CCc2c(sc(N)c2C(N)=O)C1 (centres undefined)
→ 44	-2.4%	5.5	7	8%	-5%	?
4) c1ccc(CC2CCN(C(c3cccs3)c3nnnn3C3CCCC3)CC2)cc1 (centres undefined)
→ -5	-2.2%	7.0	.	-17%	11%	1%
5) Cc1cc[n+](CC(=O)Nc2ccccc2)cc1
→ 33	0.6%	-2.3	-2	9%	-2%[15.4 µM]	14%
6) CCOc1cc(/C=C2/C(=N)N3N=C(C)SC3=NC2=O)ccc1OS(=O)(=O)c1ccc(C)cc1
→ 33	.	1.7	18	?	19%	4%
7) COc1ccc(C(=O)NC2CCSC2=O)cc1 (centres undefined)
→ -9	1.2%	-3.2	-8	-1%	-44%[inhibitor]	-5%
8) Cc1n[nH]c(C)c1Cc1c(F)cccc1Cl
→ -7	1.2%	2.0	10	4%	-41%[inhibitor]	19%
9) CCCCCCN1C2=NCCN2c2ccccc21
→ 7	-0.5%	0.8	-5	-10%	8%	2%
10) CN1N=C(C(=O)N2CCc3c([nH]c4ccccc34)C2c2ccccc2Cl)CCC1=O (centres undefined)
→ -5	.	-4.3	2	-2%	-18%[15.4 µM]	7%
11) Cc1ccc(NC(=O)CSc2nnc(CNC(=O)c3ccco3)o2)cc1Cl
→ 7	-0.6%	-1.3	6	-8%	9%	14%
12) CCOC(=O)c1ccc(-c2c(-c3ccc(OC)cc3)oc(=O)c3cc(OC)c(OC)cc23)cc1F
→ 61	?	.	5	-8%	.	.
13) Cc1cc(C)c2nc(N3CCCC(C(=O)NCCN4CCOCC4)C3)sc2c1 (centres undefined)
→ 3	0.2%	-1.3	-3	9%	0%	13%
14) CC(C)=CCN1CCN(CCCc2ccccc2)CC1CCO (centres undefined)
→ 6	-5.0%	0.1	16	3%	24%	8%
15) O=C(Nc1nccs1)c1cc(-c2ccncc2)nc2ccccc12
→ 31	.	8.8	12	-4%	?	7%
16) Cc1cccc(-n2cnc3sc(C)c(C)c3c2=O)c1
→ 29	-3.8%	-2.2	-5	-5%	-1%[15.4 µM]	6%
17) COc1ccc(CCNC(=O)C(=O)c2cn(CC(=O)N3CCCC3)c3ccccc23)cc1OC
→ -8	5.4%	.	.	.	-32%[inhibitor]	.
18) CCc1cccc(NC(=O)NC(=O)Cn2nnc(C(=O)OC)c2C(=O)OC)c1
→ 19	-1.9%	5.7	-2	1%	-8%[15.4 µM]	-10%
19) COC(=O)[C@H](C)NC(=O)Nc1ccccc1C(F)(F)F
→ -5	1.2%	-0.1	-19	-2%	8%	10%
20) Cc1noc(NS(=O)(=O)c2ccc(N/C=C\C(=O)c3cccc4ccccc34)cc2)c1C
→ -16	.	7.0	4	-58%	10%[15.4 µM]	79µM*
21) Cc1cccc(C)c1NC(=O)Nc1ccc2c(c1)OCO2
→ 15	.	1.3	0	9%	23%[15.4 µM]	-1%
22) CC(C)(C)S(=O)(=O)c1ccc(S(=O)(=O)C(C)(C)C)s1
→ .	.	-4.0	4	.	.	15%
23) O=C(CN1CCOCC1)Nc1ccccc1NC(=O)C1CCN(c2ncccn2)CC1
→ -11	?	1.4	-14	2%	4%	8%
24) O=C(CCn1c2c(c3ccccc31)CCCC2)NNC(=O)c1ccccc1Cl
→ -8	0.1%	1.5	8	2%	3%	17%
25) NS(=O)(=O)c1ccc(CCNC(=O)c2ccc(Cl)nc2)cc1
→ -5	-8.0%	4.8	4	13%	19%	4%
26) C/C(CC(=O)Nc1cccc(C(F)(F)F)c1)=N\NC(=O)c1cnccn1
→ 14	.	-1.9	-8	-8%	2%[15.4 µM]	17%
27) CCC(Sc1nc2cc(OC)c(OC)cc2c(=O)n1CCc1ccc(S(N)(=O)=O)cc1)C(=O)NCCOC (centres undefined)
→ -22	.	0.0	-8	-20%	10%	14%
28) CC(C)C1(c2ccsc2)NC(=O)NC1=O (centres undefined)
→ 2	1.4%	.	.	15%	-11%	.
29) CCCC(C)NC(=O)/C=C/c1cccc([N+](=O)[O-])c1 (centres undefined)
→ 3	-0.5%	8.6	-1	1%	6%	4%
30) COc1ccccc1NC(=O)N1CCCC1C(=O)Nc1ccc(NC(C)=O)cc1 (centres undefined)
→ 1	-1.4%	3.6	-9	11%	3%	17%
31) O=C(NNc1ccccc1Cl)C(O)(c1cccc(C(F)(F)F)c1)c1cccc(C(F)(F)F)c1
→ 11	-0.4%	0.2	-5	?	0%	27%
32) CCOC(=O)c1c(C)c(C(=O)NCCCOC)c(C)n1C
→ 2	-2.3%	0.1	-1	3%	26%	32%[activator]
33) C=CCC[C@H](Cc1ccc(F)cc1)C(=O)OC[C@@H](Cc1c[nH]c2ccccc12)NC(=O)[C@H](CC=C)CC(=O)N[C@H](CO)Cc1ccccc1
→ -12	4.1%	.	.	-5%	.	.
34) O=C(CCl)c1cc2c3c(c1)CC(=O)N3CCC2
→ 2	-1.5%	-9.1	2	16%	8%	-1%
35) CCN(C(C)=O)c1cnc(C=NNC(N)=S)c2ccccc12
→ -27	-3.6%	.	.	-4%	-40%[inhibitor]	.
36) CC1=NN(C(=O)Cc2ccccc2)C(O)(c2ccccc2)C1 (centres undefined)
→ 3	.	0.2	-18	1%	-13%[15.4 µM]	20%
37) COc1ccc(N(CC(=O)Nc2ccc(F)c(Cl)c2)S(=O)(=O)c2c(C)noc2C)cc1
→ 37	-3.5%	5.8	7	?	?	8%
38) CN(C)CCCNC(=O)C(=O)NCC(c1cccs1)S(=O)(=O)c1ccc(F)cc1 (centres undefined)
→ 6	.	.	-9	10%	23%[15.4 µM]	.
39) Cc1noc(C)c1S(=O)(=O)N(CC(=O)NCc1ccc2c(c1)OCO2)c1ccc(C(C)C)cc1
→ -8	1.0%	-0.8	-11	-6%	?	3%
40) CCCCSc1n[nH]c(N)n1
→ -4	1.9%	0.3	-7	3%	-9%	6%
41) CC1(NC(=O)c2cc(-c3cccs3)nn2-c2ccccc2)CCS(=O)(=O)C1 (centres undefined)
→ -8	-8.7%	.	0	-7%	5%[15.4 µM]	.
42) Cc1nc(-c2ccc(Cl)cc2)sc1C1(C)CC(c2ccncc2)=NO1 (centres undefined)
→ 52	-6.9%	.	.	-10%	.	.
43) COc1ccc(NC(=O)C2CC(=O)N(Cc3ccc(C)cc3)C2)cc1S(=O)(=O)N1CCCCC1 (centres undefined)
→ -4	1.2%	4.0	-7	-10%	1%	-5%
44) CCN=C(NCC)SC1CC(=O)N(c2cccc(OCC)c2)C1=O (centres undefined)
→ 5	1.9%	1.7	-5	-11%	?	7%
45) O=C(NCc1ccccc1Cl)C1CCC(=O)N(CCCN2CCCC2=O)C1 (centres undefined)
→ -12	-0.2%	.	-3	7%	11%[15.4 µM]	10%
46) O=C(Nc1ccccc1N1CCOCC1)c1ccc(F)c(S(=O)(=O)N2CCOCC2)c1
→ 3	-1.2%	.	9	-3%	-71%[inhibitor]	.
47) CC(C)NS(=O)(=O)c1ccc(OCC(=O)Nc2ccccc2F)cc1
→ 6	-0.7%	4.8	4	4%	-18%	16%
48) Cc1ccc(S(=O)(=O)N2CCN(C(=O)COC(=O)c3ccc([N+](=O)[O-])o3)CC2)c(C)c1
→ -5	0.1%	.	-7	8%	-40%[inhibitor]	.
49) CC(C)(C)C(=O)Nc1ccc(NC(=O)c2ccco2)nc1
→ 37	0.2%	-8.4	28	-3%	35%	3%
50) Cn1ccs/c1=N\S(=O)(=O)c1ccc(Br)cc1
→ 16	-4.1%	16	1	-4%	14%	8%

Next part:
The line under a structure holds: TRPML1 blocker	ClpP mod	Menin MLL FP FL	TRPV1 potentiator	gsp antag	gsp agonist	Sfp PPTase inh
51) Cc1cc(C)c(N(CC(=O)NC(C)(C)C)C(=O)CNC(=O)c2cccs2)c(C)c1
→ -13	.	-3.2	-4	-6%	-3%	5%
52) CCOC(=O)Cn1c(=S)[nH]c2c(oc3ccc(Cl)cc32)c1=O
→ -6	-7.8%	3.7	8	-3%	10µM*	?
53) CCOC(=O)CNC(=O)CNC(=O)c1ccc(OC(C)C)cc1
→ 16	-1.9%	0.4	-10	5%	?	2%
54) C=CCNC(=S)NNC(=O)C(CCC(C)C)CC(C)O (centres undefined)
→ -16	-0.9%	2.9	1	4%	?	21%
55) Cc1ccc(NC(=O)CSc2nnc(-c3ccncc3)n2C)cc1S(=O)(=O)N1CCOCC1
→ 3	.	1.0	-4	3%	3%	19%
56) CC1CCN(c2ncccc2C(=O)O)CC1
→ -4	1.1%	-0.6	8	-13%	29%	2%
57) CN(C)C1=NC[C@H](Cc2ccccc2)N1CCCCc1ccccc1
→ 27	-0.6%	.	25	13%	40%	.
58) Cc1ccc(N2CC(C(=O)OCC(=O)C(C)(C)C)CC2=O)cc1C (centres undefined)
→ 2	1.2%	1.4	-11	16%	?	9%
59) CC(=O)c1ccc(OCCOc2ccc([N+](=O)[O-])cc2)cc1
→ 4	.	-0.5	22	2%	-35%[inhibitor]	0%

Bioassay records from PubChem BioAssay.
